KAT2A inh: inhibitors of human GCN5L2 histone acetyltransferase; Q92830; GCN5L2 HAT assay, ThioGlo1 CoA-SH fluorescence; Potency, µM (titrated, usually from 58.9 µM), for inactives: at the highest dose activity change, negative = inhibition, actives largely listed as inhibitors; 390,000 compounds, 0.21% hits; AID 504327; active means well fitted inhibition curve with a large enough effect
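Free CoA generated was detected with ThioGlo1 (50uM) fluorescence at Ex340nm/Em540nm, read immediately and after 20 min at room temperature. Enzyme, 20 nM in HEPES pH 7.5 buffer, saw compounds 15 min before adding 75uM H3(1-25) peptide and 70uM acetyl-CoA.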
* hit, by the source's call. On the % scale 0 is the no-effect control and ±100 the full control effect; potency means the concentration at half of the fitted maximal effect. A portion of the library; most or all hits stand in other tables.

Preview:
How did CCOC(=O)N1CCN(c2ccc(F)cc2[N+](=O)[O-])CC1 do in these assays?
KAT2A inh: 1%

Results for O=C(c1cccc(OC2CCN(Cc3ccc(F)cc3Cl)CC2)c1)N1CCCC1 ?
KAT2A inh: -7%

Main list, repeating the preview:
How did CCOC(=O)N1CCN(c2ccc(F)cc2[N+](=O)[O-])CC1 do in these assays?
KAT2A inh: 1%

Results for O=C(c1cccc(OC2CCN(Cc3ccc(F)cc3Cl)CC2)c1)N1CCCC1 ?
KAT2A inh: -7%

Results for COc1ccc(C(=O)N2CCCC(CCC(=O)N3CCN(c4ccccn4)CC3)C2)cc1 (stereo not drawn) ?
KAT2A inh: -6%

What do the screens show for `Cc1ccc(-c2noc(-c3ccccc3C(=O)N3CCCC3)n2)cc1`?
KAT2A inh: -3%

How did CCN(CC)CCCN(Cc1cc2cc3c(cc2[nH]c1=O)OCCO3)C(=O)Nc1ccc(F)cc1 do in these assays?
KAT2A inh: -3%

Retrieved one by one from the entries so far (2):
What do the screens show for `Cc1ccc(-c2noc(-c3ccccc3C(=O)N3CCCC3)n2)cc1`?
KAT2A inh: -3%

Results for O=C(c1cccc(OC2CCN(Cc3ccc(F)cc3Cl)CC2)c1)N1CCCC1 ?
KAT2A inh: -7%

Compound activity: PubChem, National Center for Advancing Translational Sciences (NCATS)
